Assay outcomes (PubChem)
gsp antag: antagonizes gsp, the McCune-Albright syndrome mutation; gsp-mutant cells, cAMP HTRF, 30 min; control for the full effect not named in the record; Potency, µM (titrated, usually from 76.9 µM), without a hit: at the top dose activity change, negative = inhibition, actives largely listed as inhibitors; actives 0.4% (n = 340,000); active = falling curve of any shape with a large fitted effect; inconclusive = falling curve, mostly with a smaller effect; inactive = flat or rising curve; cell line not stated here;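 further: intracellular cAMP measured with PDE inhibitor Ro 20-1724 present during compound exposure; potency means the concentration at half of the fitted maximal effect; on the % scale 0 is the no-effect control and ±100 the full control effect; nearly all actives have a fitted effect of over 65% in size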
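Measurement of cellular cAMP by homogeneous time-resolved fluorescence following a 30 min compound exposure at 37C. The PDE inhibitor […] was present throughout; the assay buffer was DPBS with 0.05% BSA and 0.005% Tween 20.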
gsp agonist: gsp mutant agonism | gsp mutant cells, cAMP HTRF, 30 min; control for the full effect not named in the record | Potency, µM (titrated, usually from 76.9 µM), for inactives: at the top dose activation (cAMP increase), usual class: activators | actives 0.13% (n = 340,000) | AID 624287; active = well fitted activation curve with a large enough effect; inconclusive = small, poorly fitted or top-dose-only effect, or another doubt; inactive = no such curve, though single readings can be large or run the other way; cell line not stated here;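 further: phosphodiesterase inhibitor Ro 20-1724 added with compounds to block cAMP breakdown; potency means the concentration at half of the fitted maximal effect; nearly all actives have a fitted effect of over 60% in size; about a fifth of the inactives were tested at one dose only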
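Cells in DMEM/10% FBS with G418 were pretreated with compounds in DMSO plus […] (300 uM stock) for 30 min at 37C. cAMP was measured by HTRF (cAMP-d2 plus anti-cAMP antibody-K) after 30 min at room temperature.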
ClpP mod: qHTS Assay for Activators of ClpP; actives 1.9% (n = 340,000); ATP-dependent Clp protease proteolytic subunit (Bacillus subtilis (strain 168)), P80244; Potency, µM (titrated, usually from 57.5 µM), for the others: at the highest dose activity change, negative = active; AID 651965, 2013; purified B. subtilis ClpP, FRET peptide cleavage, 20 min; active = well fitted falling curve with a large enough effect; inconclusive = small, poorly fitted or top-dose-only effect; inactive = no such curve, though single readings can be large or run the other way; further: potency means the concentration at half of the fitted maximal effect; the source files actives as falling curves though it sought activators and does not explain the sign; nearly all actives have a fitted effect of over 65% in size; many hits overshoot -100%
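Purified B. subtilis ClpP, 10 microg/mL final in Tris/HCl pH8 with KCl, BSA, glycerol and Tween-20, cleaved an Abz/nitrotyrosine-quenched decapeptide. Fluorescence (ex 320, em 430) was read at 0 and 20 min at room temperature. Delta was normalized to 5.8 microM ADEP and DMSO/no-enzyme controls.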
Menin-MLL FL inh: inhibitors of human menin-MLL interaction, wild-type MLL peptide | 290,000 tested, under 10 active | Fluorescence polarization, fluorescein-MLL peptide displacement from menin | AID 1766 | FP activity change, % at 61.4 µM; inconclusive = falling polarisation curve, or a change in total fluorescence; inactive = total fluorescence flat and polarisation flat or rising; no compound was filed as active; the % refers to the polarisation; negative = inhibition;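 further: % of control where 0% means no effect; inhibitors lower the polarisation; unlabelled MLL peptide was the positive control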
TRPML1 blocker: human mucolipin-1 channel inhibition | Q9GZU1 | TRPML1-inducible cells, Ca2+ dye fluorescence, FDSS; hits give low values; inhibition of EC80 agonist-evoked calcium signal | actives 0.02% (n = 390,000) | activity change, negative = inhibition, % (no concentration beside the values) | AID 624415; in the data active means activity change below about -50%; inconclusive means about -30% to -50%; inactive means above about -30%;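 further: stimulus is agonist 54-4 at its EC80 concentration; on the % scale 0 is the no-effect control and ±100 the full control effect; compound concentration not given in the record; the text of the record puts the active cut at -80%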
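Tet-induced TRPML1-DL cells loaded with Ca8 no-wash calcium dye were read kinetically on FDSS. Compound addition was followed by EC80 agonist 54-4 (4 uM final); inhibition was read over 110 s.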
Sfp inh: Sfp phosphopantetheinyl transferase inhibition; Potency, µM, without a hit: max response, negative = inhibition, hits mostly inhibitors; Q9F4F7; Biochemical Sfp PPTase activity, qHTS; actives 3.5% (n = 310,000); active means well fitted inhibition curve with a large enough effect; inconclusive means small, poorly fitted or top-dose-only effect, or another doubt; inactive means no such curve, though single readings can be large or run the other way;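 further: the enzyme is Sfp with the accession as filed and its product quenches rhodamine fluorescence; potency means the concentration at half of the fitted maximal effect; 0% = enzyme reaction without inhibitor and -100% = no enzyme wells; top concentration of the series not given in the record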
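Reaction rates are the 30-min fluorescence difference (ex 525, em 598 nm) in wells containing 15 nM Sfp, 5 uM rhodamine-CoA and 12.5 uM BHQ-2-YbbR at pH 7.6 with 10 mM MgCl2.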
TRPV1 potentiator: enhances activation of the human vanilloid receptor TRPV1; Q8NER1; TRPV1-expressing cells, Fluo-8 calcium influx, capsaicin EC20 potentiation; host cell line not named in the record; control for the full effect not named in the record; potentiation, % at 8.33 µM; actives 0.02% (n = 320,000); AID 540277; active means potentiation above 80%; inconclusive means 30% to 80%; inactive means below 30%; further: 0% is about no effect
Target sequence (Q8NER1 whole entry, looked up): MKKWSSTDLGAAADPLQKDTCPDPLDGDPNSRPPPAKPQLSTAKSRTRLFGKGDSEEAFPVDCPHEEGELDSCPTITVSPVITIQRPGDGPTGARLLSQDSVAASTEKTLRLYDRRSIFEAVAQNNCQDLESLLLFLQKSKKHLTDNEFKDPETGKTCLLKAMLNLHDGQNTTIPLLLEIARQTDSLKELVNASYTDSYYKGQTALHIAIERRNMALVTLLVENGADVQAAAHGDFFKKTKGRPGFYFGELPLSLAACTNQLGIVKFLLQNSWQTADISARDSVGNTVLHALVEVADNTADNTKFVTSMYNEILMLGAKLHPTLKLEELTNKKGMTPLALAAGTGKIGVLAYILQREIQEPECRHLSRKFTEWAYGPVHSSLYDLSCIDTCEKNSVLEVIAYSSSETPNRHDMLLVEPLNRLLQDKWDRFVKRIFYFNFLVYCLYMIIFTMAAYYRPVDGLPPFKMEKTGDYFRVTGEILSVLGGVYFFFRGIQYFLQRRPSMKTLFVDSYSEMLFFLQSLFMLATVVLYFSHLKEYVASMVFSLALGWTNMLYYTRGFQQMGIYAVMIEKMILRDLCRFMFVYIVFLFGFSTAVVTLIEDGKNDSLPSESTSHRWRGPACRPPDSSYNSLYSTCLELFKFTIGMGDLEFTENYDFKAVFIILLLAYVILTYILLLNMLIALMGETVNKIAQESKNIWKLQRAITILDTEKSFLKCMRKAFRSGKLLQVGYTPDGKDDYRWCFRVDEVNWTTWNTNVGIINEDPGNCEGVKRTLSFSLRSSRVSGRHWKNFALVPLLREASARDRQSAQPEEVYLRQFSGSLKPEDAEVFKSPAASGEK
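TRPV1-expressing cells were cultured overnight at 35.5C and loaded with Fluo-8 calcium dye for 40 to 90 min at room temperature. After a 10 s baseline, compound was added and calcium influx was read kinetically for 3 min (ex 480/em 520 nm).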
Starred values were filed as active, the others as inactive; u = inconclusive; x = no result given; & = joins results of further samples; [ ] = dose if it differs, or a comment.

Order of values – gsp antag, ClpP mod, Sfp inh, TRPV1 potentiator, Menin-MLL FL inh, TRPML1 blocker, gsp agonist
CNc1ncc(-c2nnnn2-c2ccccc2)c(-c2ccccc2)n1
→ 4%, -19%, 5%, -10, 3.7, 26, 5%
Cc1cc(NC(=O)c2cccnc2)ccc1Br
→ 4%, 0.8%, -6%, -11, -3.3, -1, -21%
COc1ccc(NC(=O)N(C)C[C@@H]2OCc3ccccc3-c3c(n(C)c4ccccc34)C(=O)N([C@H](C)CO)C[C@H]2C)c(OC)c1
→ x, -16%, x, x, x, 39, -49%[inhibitor]
Cc1ccc(N2CCN(C(=S)c3ccc(-c4ccccc4[N+](=O)[O-])o3)CC2)cc1
→ 8%, 1.9%, 18µM*, -6, -1.4, 55, 1%[15.4 µM]
Cc1cc2nc(N3CCN(C(=O)c4ccco4)CC3)sc2cc1C
→ 2%, x, x, -12, x, 3, -8%[15.4 µM]
CC1(C)CC(=O)N(CC(=O)O)c2ccccc2S1
→ 0%, -2.2%, 7%, 6, -2.2, -17, -6%
COc1ccccc1C(=O)NNC(=O)C(=O)N1CCCCC1
→ 8%, -3.2%, -14%, -2, x, -4, 27%
COc1ccc(N2CCN(CC(=O)c3ccc(Cl)cc3)CC2)cc1
→ -6%, 1.9%, -22%, 16, -19, 6, 2%
O=C(c1ccco1)N1CCN(c2nc(C(F)(F)F)nc3c2nnn3Cc2ccccc2)CC1
→ -16%, u, u, 4, -2.1, 4, 7%
Cn1c(NCc2ccccc2Cl)nc2ccccc21
→ -2%, 0.1%, x, x, x, 8, -24%
CCC1(C)NC(=O)N(CC(=O)N2CCN(c3cccc(Cl)c3)CC2)C1=O (stereo not given)
→ -4%, -0.5%, x, -16, x, 17, -33%[inhibitor]
COc1ccc(C(=O)Nc2ccc(Cl)cn2)cc1S(=O)(=O)N1CCCC1
→ -20%, -1.3%, x, -4, x, 8, u
Cc1ccc(NC(=O)c2oc3ccc(Br)cc3c2C)cc1S(=O)(=O)N1CCOCC1
→ 1%, -7.2%, x, x, x, 2, -46%[inhibitor]
O=C(Nc1ccccc1)C1=C(O)CC(c2ccc(Cl)cc2)N2CCN=C12 (stereo not given)
→ -23%, 0.3%, 9%, -3, 0.8, 8, -3%[15.4 µM]
CCN(CC)S(=O)(=O)c1cccc(C(=O)Nc2sc3c(c2C(N)=O)CCCC3)c1
→ 3%, -10%, 4%, 2, 0.1, 9, 4%
Cc1ccc(NC(=O)Nc2cc(C(F)(F)F)c[nH]c2=O)cc1
→ 5%, x, 11%, 3, 4.6, 9, 18%
O=C(CCC(=O)N1CCN(S(=O)(=O)c2ccccc2Cl)CC1)c1ccccc1
→ -14%, 1.5%, x, 0, x, -13, -22%
CC1(C)Cc2c(oc3ncn4ncnc4c23)CO1
→ 7%, -1.3%, 17%, 12, 6.2, 4, 1%
N#Cc1ccc(NC(=S)NC(=O)C2CCCCC2)cc1
→ -16%, -2.8%, x, x, x, 5, -20%
Cc1c(C(=O)N2CCc3ccccc3C2)oc2ccc(S(=O)(=O)N3CCCCCC3)cc12
→ u, -1.1%, -13%, 1, 1.7, 18, u

Full records from above:
`COc1ccc(N2CCN(CC(=O)c3ccc(Cl)cc3)CC2)cc1` across the screens: gsp antag: -6%; ClpP mod: 1.9%; Sfp inh: -22%; TRPV1 potentiator: 16; Menin-MLL FL inh: -19; TRPML1 blocker: 6; gsp agonist: 2%
`CNc1ncc(-c2nnnn2-c2ccccc2)c(-c2ccccc2)n1` across the screens: gsp antag: 4%; ClpP mod: -19%; Sfp inh: 5%; TRPV1 potentiator: -10; Menin-MLL FL inh: 3.7; TRPML1 blocker: 26; gsp agonist: 5%

The main list resumes with the 6 entries that preceded the break.
Order of values – gsp antag, ClpP mod, Sfp inh, TRPV1 potentiator, Menin-MLL FL inh, TRPML1 blocker, gsp agonist
CCN(CC)S(=O)(=O)c1cccc(C(=O)Nc2sc3c(c2C(N)=O)CCCC3)c1
→ 3%, -10%, 4%, 2, 0.1, 9, 4%
Cc1ccc(NC(=O)Nc2cc(C(F)(F)F)c[nH]c2=O)cc1
→ 5%, x, 11%, 3, 4.6, 9, 18%
O=C(CCC(=O)N1CCN(S(=O)(=O)c2ccccc2Cl)CC1)c1ccccc1
→ -14%, 1.5%, x, 0, x, -13, -22%
CC1(C)Cc2c(oc3ncn4ncnc4c23)CO1
→ 7%, -1.3%, 17%, 12, 6.2, 4, 1%
N#Cc1ccc(NC(=S)NC(=O)C2CCCCC2)cc1
→ -16%, -2.8%, x, x, x, 5, -20%
Cc1c(C(=O)N2CCc3ccccc3C2)oc2ccc(S(=O)(=O)N3CCCCCC3)cc12
→ u, -1.1%, -13%, 1, 1.7, 18, u
C=CCOC(=O)C1=C(C)NC2(O)c3ccccc3C(=O)C12O (stereo not given)
→ 9%, -2.0%, 5%, -2, 2.9, 3, 2%
COc1ccc(OC)c(C(=O)Cn2nnc3ccccc3c2=O)c1
→ 1%, 0.8%, 1%, 6, 1.3, 4, -10%
Cc1ccc(NC(=O)C2CCCN2S(=O)(=O)c2cccc3cccnc23)c(C)c1 (stereo not given)
→ -3%, -1.2%&-0.6%, 11%, -2, x, 14&-2, 15%
CCN1CCc2nc3sc(C(=O)N4CCc5ccccc5C4)c(N)c3cc2C1
→ -13%, x, 45µM*, 16, -0.6, 25, u
COc1cccc(N2CCN(C(=S)Nc3ccc(F)cc3)CC2)c1
→ 3%, 2.5%, 29%, -36, -4.4, -7, -41%[inhibitor]
Cc1ccccc1-n1ncc2c1CC(C)(C)CC2NC(=O)CCC(F)(F)F (stereo not given)
→ 7%, 0.1%, 6%, -22, -0.3, -2, 3%[15.4 µM]
COc1cc(/C=N/NC(N)=O)c(Br)cc1OCC(=O)Nc1ccccc1C
→ -9%, 0.8%, -4%, x, 2.0, 6, -8%
O=C(N/N=C/c1ccco1)c1ccn[nH]1
→ 1%, 2.6%, 1%, 1, 1.0, -10, u
Cc1ccc(SCc2c(C(=O)N/N=C/c3ccco3)nnn2-c2nonc2N)cc1
→ x, -15%, x, x, x, -9, 3%
COc1ccc(OC)c(NC(=O)CSc2nncc(=O)n2N)c1
→ 2%, -3.0%, -19%, 4, 0.6, -2, -50%[inhibitor]
O=C1Nc2ccc(Cl)cc2C12Nc1ccccc1-c1nnc(SCc3ccccc3F)nc1O2 (stereo not given)
→ 7%, 53%, -23%, -22, -3.5, -3, 11%[15.4 µM]
O=C(CN(CC1CCCO1)C(=O)CNS(=O)(=O)c1ccc(F)cc1)NC1CCCC1 (stereo not given)
→ 4%, x, 14%, 2, x, 6, -15%[15.4 µM]
CC(C)(C)OC(=O)NCCNC(=O)c1cccs1
→ 10%, x, 7%, 11, 2.8, -7, 5%[15.4 µM]
CCC(C)NC(=O)C1(C)CCC(=O)N1Cc1ccccc1OC (stereo not given)
→ 5%, -0.3%, 10%, 1, 1.1, 33, -3%
O=c1[nH]c2cc3c(cc2cc1C(c1nnnn1C1CCCCC1)N1CCSCC1)OCCO3 (stereo not given)
→ 42%[activator], 35µM*, -13%, -6, 6.7, 48, u
CC1CCCN(CCC(=O)Nc2ccc(F)c(F)c2)C1 (stereo not given)
→ 10%, -0.6%, 0%, 3, -1.2, -9, 3%[15.4 µM]

Marked active in Sfp inh, of those listed so far:
structure	gsp antag	Sfp inh	Menin-MLL FL inh	TRPML1 blocker	gsp agonist
Cc1ccc(N2CCN(C(=S)c3ccc(-c4ccccc4[N+](=O)[O-])o3)CC2)cc1	8%	18µM*	-1.4	55	1%[15.4 µM]
CCN1CCc2nc3sc(C(=O)N4CCc5ccccc5C4)c(N)c3cc2C1	-13%	45µM*	-0.6	25	u
